Arbovirus inh – arbovirus infection inhibition; arbovirus infection cell-based antiviral screen; inhibition, % at 10 µM; 200,000 compounds, 0.37% hits; AID 1251;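 active means inhibition from about 30%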;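 further: bluetongue infection of BSR cells; cell survival read as ATP light after 72 h; 0% = infected wells without compound and 100% = uninfected wells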
RecA splice inh – Mtb RecA intein splicing inhibition; cell-free RecA intein splicing, fluorescence; P9WHJ3; inhibition, %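 (about 9 µM by stock and volumes)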; 290,000 compounds, 0.75% hits; in the data active means inhibition above about 30%; inconclusive means no clear call, values can overlap the other calls;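 further: 0% = vehicle wells and 100% = reference inhibitor control wells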
Target sequence (P9WHJ3 whole entry, looked up, canonical isoform): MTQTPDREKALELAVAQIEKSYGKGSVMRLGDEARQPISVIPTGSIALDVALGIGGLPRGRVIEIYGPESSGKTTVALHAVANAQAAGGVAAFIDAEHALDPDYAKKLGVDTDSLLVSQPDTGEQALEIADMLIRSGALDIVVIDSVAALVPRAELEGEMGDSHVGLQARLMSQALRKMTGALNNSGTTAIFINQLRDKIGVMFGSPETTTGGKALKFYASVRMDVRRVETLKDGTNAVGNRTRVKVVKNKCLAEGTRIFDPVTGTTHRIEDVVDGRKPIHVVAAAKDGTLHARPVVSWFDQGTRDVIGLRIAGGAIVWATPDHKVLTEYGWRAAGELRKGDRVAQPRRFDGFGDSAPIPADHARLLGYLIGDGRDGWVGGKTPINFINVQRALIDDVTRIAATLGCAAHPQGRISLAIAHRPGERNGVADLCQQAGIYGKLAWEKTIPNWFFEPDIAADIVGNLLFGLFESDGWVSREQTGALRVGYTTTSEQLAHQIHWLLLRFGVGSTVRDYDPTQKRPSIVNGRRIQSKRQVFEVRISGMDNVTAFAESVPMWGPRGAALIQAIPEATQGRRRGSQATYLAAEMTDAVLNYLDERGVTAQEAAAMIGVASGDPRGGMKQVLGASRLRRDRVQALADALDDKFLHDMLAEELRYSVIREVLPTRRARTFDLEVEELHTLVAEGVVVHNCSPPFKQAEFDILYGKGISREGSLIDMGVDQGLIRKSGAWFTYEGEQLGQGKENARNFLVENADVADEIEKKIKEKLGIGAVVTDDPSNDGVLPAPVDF
Mtb growth – M. tuberculosis H37Rv growth inhibitors, H37Rv strain (AID 1626) | M. tuberculosis H37Rv growth inhibition; higher % means a stronger effect | inhibition, % at 10 µM; hits with a dose series show IC50 in µM | 220,000 compounds, 0.95% hits;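 active means confirmed in a dose series; inconclusive means inhibition above 80% but not taken into the dose series; inactive means below 80% or under 30% at every dose of the series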;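 further: bacteria incubated seven days before Alamar blue readout; 0% = bacteria only wells and 100% = bacteria with antibiotic wells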
YopH PTP inh – blocks Yersinia enterocolitica YopH tyrosine phosphatase | fluorescence Ex485/Em525 | inhibition, %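 (about 10 µM by stock and volumes)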 | 140,000 compounds, 0.16% hits;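 active means inhibition of 50% or more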;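 further: controls were vehicle for no effect and minimum signal wells for full effect; inactives centre near -20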
Mtb betalactam – beta-lactam sensitization of Mtb H37Rv. M. tuberculosis H37Rv growth with meropenem, percent inhibition; hits of this screen are not shown here. inhibition, % at 25 µM. AID 434955. 330,000 compounds, 0.27% hits;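 active means about 74% or more and at least 40 points above the plate without the antibiotic, then above 30% in a dose series; inconclusive means first-round hits that could not be retested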;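 further: growth measured after seven days incubation then overnight dye step; 0% = bacteria only wells and 100% = bacteria with antibiotic; twin plates without the antibiotic show which effects depend on it; some results filed as inactive read as strong as hits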
Arbovirus inh repeat – second read-out of Arbovirus inh, no call of its own (marks repeat the call); inhibition, %; measured here: 10K subset replicate screen; many hits read low in the repeat;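 first of two repeat runs on a subset; 0% = infected and 100% = uninfected wells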
Active calls of the source: *; ? = inconclusive; · = not tested or not shown. Not all compounds are listed (hit frequency here may not be typical).

SMILES	Arbovirus inh	RecA splice inh	Mtb growth	YopH PTP inh	Mtb betalactam	others
O=S(=O)(c1ccc2ccccc2c1)N(CC(O)CN1CCOCC1)c1ccccc1 (stereo not drawn)	2	3.8	-3%	8	23
COc1cccc(/C=C2\SC(=S)N(CCC(=O)N3CCCCC3CCO)C2=O)c1 (stereo not drawn)	·	2.3	·	·	34
Cc1cccc(N2CC(C(=O)Nc3ccccc3N3CCCC3)CC2=O)c1C (stereo not drawn)	·	-3.5	·	·	-8
COc1cc(/C=N/NC(=O)c2ccc(CN3c4cccc5cccc(c45)S3(=O)=O)cc2)cc(OC)c1O	-20	-1.2	2%	·	·
CC[C@@H](Nc1ncnc2c1oc1ccccc12)C(=O)O	·	-1.8	-5%	·	-3
Cc1cc(C)n(-c2ccc(C(=O)N3CC(C)OC(C)C3)cc2)n1 (stereo not drawn)	24	-1.0	3%	·	-1
O=C(NCCN1CCOCC1)c1ccc2ccccc2c1	6	2.5	·	-27	4
Cc1[nH]nc2c1C(c1ccsc1)C1=C(CC(C)(C)CC1=O)N2 (stereo not drawn)	4	-5.2	-7%	·	1
OCCOCCn1c(C(CO)Nc2nc(-c3ccc(Cl)cc3)cs2)nc2ccccc21 (stereo not drawn)	·	8.7	15%	·	87
COc1cccc(C(=O)Nc2ccccc2NC(=O)c2cccc(OC)c2)c1	·	-1.9	·	·	-10
CCN(CC)C(=S)Nc1c(C)n(C)n(-c2ccccc2)c1=O	0	-1.1	-3%	·	0
CCN1CCN(CCC(=O)Nc2cc(OC)cc(OC)c2)CC1	·	4.1	·	·	0
CCOc1ccc(C(C)=O)cc1Cn1nc(C(=O)O)c2ccccc2c1=O	3	-3.1	-7%	-37	-10
COc1ccc(/C=C/C(=O)Nc2ccc(C34CC5CC(CC(O)(C5)C3)C4)cc2)cc1OC	-25	-2.2	76%	-11	-1
CN1C(=O)C(O)(C2CCCCCC2=O)c2ccccc21 (stereo not drawn)	·	3.0	·	·	-12
CC(C)CCOc1ccc(C(=O)CCNC(C)C(=O)O)cc1 (stereo not drawn)	-1	·	-6%	-47	·
O=C(NCc1ccccc1)C(c1ccccc1)N(C(=O)c1csnn1)c1ccc(F)cc1 (stereo not drawn)	·	-2.1	·	·	0
CN(C(=O)COc1cc(=O)n(C)c2ccccc12)c1ccc(Br)cc1	-8	-0.1	-8%	17	-1
CN(CC(O)COC(c1ccccc1)c1ccccc1)C1CCCCC1 (stereo not drawn)	6	3.1	6%	·	-6
Cc1cc(=O)oc2cc(OCC(O)Cn3ccnc3)ccc12 (stereo not drawn)	·	-0.3	·	·	-2

By substructure, the compounds so far containing a halogen
SMILES	Arbovirus inh	RecA splice inh	Mtb growth	YopH PTP inh	Mtb betalactam	others
OCCOCCn1c(C(CO)Nc2nc(-c3ccc(Cl)cc3)cs2)nc2ccccc21 (stereo not drawn)	·	8.7	15%	·	87
O=C(NCc1ccccc1)C(c1ccccc1)N(C(=O)c1csnn1)c1ccc(F)cc1 (stereo not drawn)	·	-2.1	·	·	0
CN(C(=O)COc1cc(=O)n(C)c2ccccc12)c1ccc(Br)cc1	-8	-0.1	-8%	17	-1

Copied from above (five entries):
SMILES	Arbovirus inh	RecA splice inh	Mtb growth	YopH PTP inh	Mtb betalactam	others
CC(C)CCOc1ccc(C(=O)CCNC(C)C(=O)O)cc1 (stereo not drawn)	-1	·	-6%	-47	·
O=C(NCc1ccccc1)C(c1ccccc1)N(C(=O)c1csnn1)c1ccc(F)cc1 (stereo not drawn)	·	-2.1	·	·	0
CN(C(=O)COc1cc(=O)n(C)c2ccccc12)c1ccc(Br)cc1	-8	-0.1	-8%	17	-1
CN(CC(O)COC(c1ccccc1)c1ccccc1)C1CCCCC1 (stereo not drawn)	6	3.1	6%	·	-6
Cc1cc(=O)oc2cc(OCC(O)Cn3ccnc3)ccc12 (stereo not drawn)	·	-0.3	·	·	-2

(continued)
SMILES	Arbovirus inh	RecA splice inh	Mtb growth	YopH PTP inh	Mtb betalactam	others
CC(C)(C)C1CCc2onc(C(=O)O)c2C1 (stereo not drawn)	0	-0.3	-8%	·	-5
CC(C)C(=O)Nc1cccc(NC(=O)c2cccc([N+](=O)[O-])c2)c1	1	-2.1	-4%	9	3
COc1ccccc1NC(=O)Cn1nnc2sc3c(c2c1=O)CC(C)(C)OC3	·	-1.0	-5%	·	-5
COc1cccc(NC(=O)c2cc(-c3cccnc3)nc3c(Cl)cccc23)c1	-10	·	-1%	-48	79
O=C(CCCN=C1NS(=O)(=O)c2ccccc21)OCc1ccccc1	·	-3.7	·	·	-8
Cc1ccc2nc(SCC(=O)Nc3cccc(S(N)(=O)=O)c3)[nH]c2c1	·	-2.8	-1%	·	-1
COc1ccc(CCNC(=O)CSc2nnnn2-c2ccc(OC)c(OC)c2)cc1OC	8	-0.4	-5%	·	-3
Cc1cc(C(=O)CN2C(=O)C(=O)N(C)C2=O)c(C)n1-c1cccc(S(=O)(=O)N2CCOCC2)c1	·	-0.8	-9%	·	4
Cc1ccc(CNS(=O)(=O)c2ccc(F)c(F)c2)n1C	·	1.5	·	·	-2
Cc1c(Br)c([N+](=O)[O-])nn1C(C)C(=O)NCc1ccco1 (stereo not drawn)	-2	2.7	-2%	-15	-7
Cc1ccc(S(=O)(=O)N2CCCC2C(=O)O)s1 (stereo not drawn)	0	-1.7	-5%	-22	-2
CCOc1ccc(CCN2C(=O)C3C4C=CC(C4)C3C2=O)cc1OCC (stereo not drawn)	-5	0.5	-3%	-20	?	Arbovirus inh repeat=-1
COCCNC(=O)c1cccc(S(=O)(=O)N2CC3(C)CC2CC(C)(C)C3)c1 (stereo not drawn)	·	-1.7	·	·	-1
O=C(/C=C/c1ccc(S(=O)(=O)N2CCOCC2)cc1)N1CCN(c2ccccc2)CC1	-4	2.4	-9%	·	5
O=C(O)[C@H](Cc1ccccc1)NC(=O)C(c1ccccc1)(c1ccccc1)c1ccccc1	8	4.4	-1%	·	-5
COc1ccc(CNC(=O)CN(C(=O)CCC(=O)Nc2ccccn2)c2cc(C)ccc2C)cc1	·	-2.1	·	·	-3
Cc1ccc(/C=C2/SC(=S)N(CC(=O)Nc3ncc(Cc4ccc(C)cc4)s3)C2=O)cc1	-25	4.5	2%	-10	87
O=C(COC(=O)c1cccc(Br)c1)NCCc1ccc(F)cc1	8	-1.2	10%	-20	0
COc1ccc(C2CC(=O)C3=C(C2)Nc2ccccc2N(C(C)=O)C3c2ccco2)cc1 (stereo not drawn)	-13	-0.2	-5%	-43	-11
CCOC(=O)CSc1cc(CS(=O)(=O)c2ccccc2)nc(-c2ccccc2)n1	-4	-8.8	2%	-36	5
COc1ccc(NC(=O)CSc2nc3ccccc3c(=O)n2CCCN2CCCCC2)c(OC)c1	-31	1.8	·	11	-4
CCOC(=O)N1CCN(Cc2nc(-c3cccc(C)c3)no2)CC1	10	·	-2%	-8	13
CSc1n[nH]c(-c2ccc(C(F)(F)F)cc2)n1	·	-0.8	3%	·	-4
COC(=O)/C(C#N)=C1/SC=C(C)N1c1ccccc1	7	0.6	-8%	2	0
OCCN(CCO)CC(O)COCCC12CC3CC(CC(C3)C1)C2 (stereo not drawn)	-23	-0.1	-7%	-9	-7
COC(=O)CNC(=O)COC(=O)Cc1ccc(Cl)cc1	1	3.4	-1%	·	-6
NNc1nc2c(-c3ccc(Cl)cc3)nnn2c2ccccc12	-1	-4.6	5%	·	-3
CC(C)COC(=O)Cn1cnc2ccc(Br)cc2c1=O	0	-8.2	·	-29	6
CCOc1ccccc1OCCCC(=O)NCCc1ccc(S(N)(=O)=O)cc1	·	-1.9	·	·	-3
O=C(Nc1ccccc1C(F)(F)F)C1CCN(C(=O)Cc2ccccc2)CC1	·	-4.0	·	·	2
CCCCNC(=S)NNC(=O)c1cc(C)on1	-5	-4.3	-5%	-31	-7
O=C(O)COc1ccc(C(NC(=O)c2c(F)cccc2F)NC(=O)c2c(F)cccc2F)cc1	·	0.3	·	·	-2
CC(=O)N1CCc2cc(Br)cc(S(=O)(=O)N3CCCCC3)c21	·	1.5	·	·	0
CCOc1ccc(C(=O)NCC(=O)OCC(=O)N2CCCC2)cc1	5	-2.4	3%	·	3
O=C(NCCNC(=O)c1ccccn1)c1ccc(-c2ccccc2)cc1	·	2.3	·	·	4
CN(CC(=O)NCC1CCCO1)S(=O)(=O)c1ccc(Br)cc1 (stereo not drawn)	·	4.0	·	·	?
CC(OC(=O)CN1C(=O)c2ccccc2C1=O)C(=O)N(C)c1ccccc1 (stereo not drawn)	·	1.2	·	·	-5
CC1CC(C)CN(CC(=O)c2ccc(OC(F)F)cc2)C1 (stereo not drawn)	-1	12	-2%	-13	3
COc1ccc(S(=O)(=O)N2CCCCCC2)cc1	-2	0.4	-8%	-21	-6
CN(C)Cc1c(C(=O)N/N=C/c2ccc(OCc3ccc(F)cc3)cc2)nnn1-c1nonc1N	·	-1.0	·	·	-1
O=C(COC(=O)c1ccccc1OCc1ccccc1Cl)NC1CC1	5	0.1	4%	-12	-2
CCCCC(=O)NC(c1ccc(N(CC)CC)cc1)c1ccc2cccnc2c1O (stereo not drawn)	·	10	·	·	-9
COc1ccc(-c2cc(C(=O)c3c(N)n(C)c(=O)n(C)c3=O)c3ccccc3n2)cc1	·	0.9	-4%	·	-2
Cc1nc(SCC(=O)c2ccccc2)[nH]c(=O)c1Oc1ccc(Cl)cc1	·	0.9	-6%	·	-4
COc1ccc(OCc2n[nH]c(=S)n2Cc2ccco2)cc1	0	2.7	4%	·	-17
COc1ccc(S(=O)(=O)NCCN2CCOCC2)c2ccccc12	8	4.1	-1%	2	13	Arbovirus inh repeat=12
CC(=O)N1CCc2cc(C(=O)CN3CCN(c4cccc(Cl)c4)CC3)ccc21	-1	0.3	-5%	-35	-2	Arbovirus inh repeat=-3
C/C(=N\Nc1cc(C)nc(-c2ccccc2)n1)c1cccc([N+](=O)[O-])c1	-8	-1.0	-2%	·	5
CSc1ccccc1OCc1cc(C(=O)NCCn2ccnc2C)no1	·	2.1	·	·	?
N=C1/C(=C/c2ccc(OCc3ccccc3)cc2)C(=O)N=C2SC(CC(=O)N3CCOCC3)=NN12	·	10	·	·	-2
Cc1ccccc1CS(=O)(=O)Cc1ccc(C(=O)N2CCOCC2)o1	-7	3.1	·	-34	-5
CCCC(=O)Nc1ccc2c(c1)C(=O)N(CCC(=O)O)C2=O	4	-4.1	3%	-29	-2
CN(C(=O)OC(C)(C)C)c1ccc(-c2nc3ccccc3s2)cc1	·	4.1	8%	·	79
O=C1NC(=Nc2ccc(Cl)cc2)SC1Cc1cccc(Cl)c1Cl (stereo not drawn)	30*	2.0	·	-21	6
CC(=O)C1=C(c2ccccc2)N(C(C)=O)n2c(C)nnc2S1	2	18	-11%	·	1
CC1CCCCC1NC(=O)c1cn(C)c2ccc(S(=O)(=O)N3CCCC3)cc2c1=O (stereo not drawn)	-10	-2.5	2%	-11	-18
OC(CNC1Cc2ccccc2C1)COc1ccc(Cl)cc1 (stereo not drawn)	·	2.7	28%	·	8
Nc1ccc2nc(-c3ccccc3)[nH]c2c1	-14	-4.5	-13%	-28	-7
COc1cccc2c1C(=O)CC2NC(=O)C(F)(F)F (stereo not drawn)	8	-1.3	-5%	-8	6
O=C(COc1ccccc1)Nc1cccc(-c2nn[nH]n2)c1	·	-4.6	·	·	-9
New compounds follow.
SMILES	Arbovirus inh	RecA splice inh	Mtb growth	YopH PTP inh	Mtb betalactam	others
NC(=O)c1c(-c2cccs2)csc1N	-3	67*	-8%	15	13
COc1cccc(N2CCN(C(=O)c3cc4c(OC)c(OC)c(OC)cc4[nH]3)CC2)c1	·	-1.0	·	·	5
Cc1ccc(-c2nc(CS(=O)(=O)CC(=O)NC3CCC(C)CC3)c(C)o2)cc1 (stereo not drawn)	·	-2.8	·	·	0
Cc1ccc(CNC(=O)c2ccc(S(=O)(=O)Nc3c(C)n(C)n(-c4ccccc4)c3=O)cc2)cc1	·	-1.0	-5%	·	-6
CCn1c(=O)c2c3c(sc2n2c(=S)[nH]nc12)CCC3	7	1.3	1%	5	-2
COCCCn1c(-c2ccc(OC)cc2)nc2c1c(=O)[nH]c(=O)n2Cc1ccccc1	·	1.6	·	·	-3
CC(=O)Nc1ccc(SCC(=O)Nc2sccc2C#N)cc1	3	1.0	-3%	·	-5
Cc1ccc2c(c1)C(c1ccccc1)N(C(=O)C(C)C)CC(=O)N2 (stereo not drawn)	8	3.4	3%	·	·	Arbovirus inh repeat=13
Cc1ccc(NC(=O)N2CCc3ccccc32)cc1	-8	0.6	-1%	33	-2
CCOC(=O)C(C)n1cnc2c(nnn2-c2ccc(OC)cc2)c1=O (stereo not drawn)	0	1.5	1%	-48	-14
CCC(=O)Nc1ccc(NC(=O)c2ccccc2Cl)nc1	-1	1.6	-1%	-46	-10
N#C/C(=C\c1cccnc1)c1ccccn1	·	0.9	·	·	-6
O=C(Nc1ccc(Cl)cc1Cl)c1cc2ccccc2o1	·	-2.1	·	·	2
